Beta cell apopt – blocks beta cell apoptosis; actives 0.8% (n = 300,000); INS-1E cytokine-induced death, ATP luminescence, 48 h; percent of positive-control rescue, neutral wells zero; AID 435005; protection from apoptosis, % (concentration not given with the values);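 active means all replicates at 75% or more, or half of them and the mean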;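 further: 0% = cytokine-treated negative control wells and 100% = positive control rescue; higher means more ATP so stronger rescue from cytokine killing; wells of about 40 µL received 100 nL stock; the first replicate is given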
A1 inh – inhibitors of the anti-apoptotic protein A1, read as caspase activation; AID 2462; caspase activation, % (no concentration beside the values); actives 0.066% (n = 330,000); MEF A1-2A-BIM cells, Caspase-Glo 3/7 luminescence, 3 h; percent of clofoctol response, vehicle zero;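 active means over half of replicate activation scores above 10%, or exactly half above 10 with the replicate mean above 10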;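 further: wells of about 30 µL received 50 nL stock; many hits fall short of the cut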
MLL AF4-AF9 inh – blocks AF4 peptide binding to human AF9; P42568; AlphaScreen, biotin-AF4 peptide binding to FLAG-AF9; inhibition, % at 10 µM; actives 0.47% (n = 350,000); AID 651704;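 active means every replicate reaching a set inhibition limit, whatever the replicate mean, cut at about 25% in these data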;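 further: 0% = plate neutral control median and 100% = total signal loss; the record names both 10 and 1 µM as test concentration; the first replicate is given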
Ecoli rRNA inh – selective bacterial rRNA inhibition in E. coli; GFP signal change (wild-type ribosome), % (concentration not given with the values); AID 720706; E. coli WT GFP vs humanized-ribosome RFP mutants, fluorescence, 24 h; hits give low values; DMSO median 0, no signal -100; actives 1.6% (n = 350,000);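 active means significant combined selectivity score with lowered wild-type GFP, culture density cut under 30%, mutant RFP and density less affected; inactive means any of these conditions unmet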; further: one replicate is shown; some compounds called inactive have numbers as strong as hits
Ecoli rRNA inh OD600 – also measured in Ecoli rRNA inh; calls as there; OD600 change, %; measured here: OD600 growth;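 optical density of the mix in the first replicate; 0 = DMSO median and -100 = no signal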
Ecoli rRNA inh RFP – recorded beside Ecoli rRNA inh, whose call it bears; RFP signal change, %; measured here: RFP humanized mutant strains;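 first replicate; 0 = DMSO median and -100 = no signal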
The depositor's hits bear a star; / = no result given. Only part of the results is shown (hit frequency here may not be typical).

Assay codes: A = Beta cell apopt; B = A1 inh; C = MLL AF4-AF9 inh; D = Ecoli rRNA inh; E = Ecoli rRNA inh OD600; F = Ecoli rRNA inh RFP
(1) CC(=O)c1ccc2c(c1)N(CCCN(C)C)c1ccccc1S2
  A: /	B: /	C: 4.1	D: /	E: /	F: /
(2) CC1(C)OC2CC(=O)OCC23C1CC(=O)C1(C)C3CCC2(C)C(c3ccoc3)OC(=O)C3OC321 (centres undefined)
  A: /	B: /	C: -0.8	D: /	E: /	F: /
(3) CC(=O)Nc1ccc(C(=O)O)cc1
  A: /	B: /	C: 1.8	D: /	E: /	F: /
(4) CCCNC(C)C(=O)Nc1c(C)csc1C(=O)OC (centres undefined)
  A: /	B: 0.7	C: -2.4	D: /	E: /	F: /
(5) CCOc1ccccc1C(N)=O
  A: /	B: /	C: /	D: 4	E: 9	F: 3.6
(6) CCOC(=O)c1ccc(N)cc1
  A: 6	B: 0.5	C: -0.6	D: /	E: /	F: /
(7) CCCCCCO
  A: -4	B: -0.2	C: /	D: 4	E: 6	F: -1.8
(8) COc1ccc(C(=O)CC(=O)c2ccc(C(C)(C)C)cc2)cc1
  A: /	B: /	C: 2.2	D: -5	E: 5	F: -2.4

Full records from above. Order of values: Beta cell apopt, A1 inh, MLL AF4-AF9 inh, Ecoli rRNA inh, Ecoli rRNA inh OD600, Ecoli rRNA inh RFP
CC(=O)c1ccc2c(c1)N(CCCN(C)C)c1ccccc1S2 as listed: /, /, 4.1, /, /, /
CCCCCCO as listed: -4, -0.2, /, 4, 6, -1.8
CCCNC(C)C(=O)Nc1c(C)csc1C(=O)OC (centres undefined) as listed: /, 0.7, -2.4, /, /, /
CCOc1ccccc1C(N)=O as listed: /, /, /, 4, 9, 3.6

Random excerpt: two compounds from above
Assay codes: A = Beta cell apopt; B = A1 inh; C = MLL AF4-AF9 inh; D = Ecoli rRNA inh; E = Ecoli rRNA inh OD600; F = Ecoli rRNA inh RFP
(8) COc1ccc(C(=O)CC(=O)c2ccc(C(C)(C)C)cc2)cc1
  A: /	B: /	C: 2.2	D: -5	E: 5	F: -2.4
(5) CCOc1ccccc1C(N)=O
  A: /	B: /	C: /	D: 4	E: 9	F: 3.6

Screens as filed in PubChem.
